# Assay outcomes: PubChem BioAssay, several laboratories
# PKD1 inh: blocks activity of human protein kinase D1. PKD1 kinase fluorescence polarization assay. inhibition, %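 (about 10 µM by stock and volumes)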. 200,000 compounds, 0.056% hits. AID 797;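 active = inhibition of 50% or more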;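 note: controls were vehicle for no effect and a reference inhibitor for full effect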
# GALR2 ag: GALR2 (human) receptor agonism; O43603; GALR2-expressing cells, agonist activation read-out; activation, %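 (tested at 5 µM)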; 140,000 compounds, 0.48% hits;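 active = above mean plus 3 SD of all compounds, about 5% in these data, not always enough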;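 note: 0% = vehicle buffer wells and 100% = reference agonist at full effect; tested in CHO reporter cells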
# Target sequence (O43603 whole entry, looked up): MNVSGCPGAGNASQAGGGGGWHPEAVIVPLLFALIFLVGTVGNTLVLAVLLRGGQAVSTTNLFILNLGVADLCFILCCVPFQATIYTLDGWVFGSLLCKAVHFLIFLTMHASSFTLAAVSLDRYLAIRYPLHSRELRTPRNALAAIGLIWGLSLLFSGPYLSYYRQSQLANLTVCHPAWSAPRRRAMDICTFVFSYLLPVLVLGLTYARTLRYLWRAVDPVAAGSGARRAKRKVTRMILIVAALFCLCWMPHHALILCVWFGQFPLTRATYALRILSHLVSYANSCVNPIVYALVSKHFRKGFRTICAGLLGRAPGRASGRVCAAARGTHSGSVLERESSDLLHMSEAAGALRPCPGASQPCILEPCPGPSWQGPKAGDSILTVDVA
# INS promoter inh: TRM-6 insulin promoter activity inhibition. 130,000 compounds, 0.9% hits. TRM-6 cells (human fetal islet line), insulin promoter-eGFP reporter, imaging; reporter expression induced with tamoxifen. inhibition, % at 2 µM;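 active = inhibition above the mean plus 3 SD, with well images judged a real hit on visual review, cut at about 60% in these data, passing the limit was not always enough; inconclusive = inhibition over the cutoff but images rejected on review; inactive = inhibition not above the cutoff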
# HSV replic up: increases HSV replication in cells; HSV replication augmentation in cells, fold increase; maximum fold increase; 220,000 compounds, 0.005% hits;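 active = peak rise of 1.5-fold or more in the series; inconclusive = self-fluorescent or not available for retest; tested in PC3 cells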;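 note: first round at 10 µM; read as green reporter fluorescence; hits show the peak of a series up to 25 µM; 1 = signal of infected wells without compound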
# RGS16-Gao HTS: modulates binding between human RGS16 and Galphao | O15492+P09471 | bead-based flow cytometry RGS16-Galphao binding, fluorescence; actives lie on both sides | binding response (% of control), % at 10 µM | 220,000 compounds, 0.38% hits | AID 1441;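 active = below 25% or above 175%, edge rows of some plates excepted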;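 note: Galphao activated by GDP with aluminum fluoride before binding; 100% = wells without compound and 0% = beads without RGS; some results beyond the cut were filed as inactive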
# Target sequence (O15492 whole entry, looked up): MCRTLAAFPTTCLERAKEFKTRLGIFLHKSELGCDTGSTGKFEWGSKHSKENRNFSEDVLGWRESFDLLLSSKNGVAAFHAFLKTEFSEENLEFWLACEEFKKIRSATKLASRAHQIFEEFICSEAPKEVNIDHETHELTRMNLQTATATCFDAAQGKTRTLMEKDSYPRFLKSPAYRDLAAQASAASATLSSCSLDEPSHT
# Target sequence (P09471 whole entry, looked up): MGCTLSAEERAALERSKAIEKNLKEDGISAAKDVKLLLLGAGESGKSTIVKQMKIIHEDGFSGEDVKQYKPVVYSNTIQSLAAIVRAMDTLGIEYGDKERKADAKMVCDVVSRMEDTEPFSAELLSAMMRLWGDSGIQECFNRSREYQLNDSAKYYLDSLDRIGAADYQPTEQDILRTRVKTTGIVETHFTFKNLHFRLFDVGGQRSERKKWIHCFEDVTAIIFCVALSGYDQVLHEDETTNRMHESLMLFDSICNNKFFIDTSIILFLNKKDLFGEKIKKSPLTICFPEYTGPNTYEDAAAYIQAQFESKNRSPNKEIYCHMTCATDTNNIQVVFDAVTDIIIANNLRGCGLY
# INS promoter inh cell count: recorded beside INS promoter inh, whose call it bears; normalized cell count, %; measured here: cell count, toxicity; reference of the scale not given here;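 cells exposed to compound for 48 h; stained nuclei by imaging scaled within each plate; lower means fewer cells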
# HSV replic up primary fold: recorded beside HSV replic up, whose call it bears; fold increase; compound at 10 µM; measured here: primary screen fold increase 10 uM; tested in PC3 cells;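 GFP signal in the first replicate; 1 = infected wells without compound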
# * hit, by the source's call; i = inactive; ? = inconclusive; nt = no result given.
SMILES,PKD1 inh,GALR2 ag,INS promoter inh,INS promoter inh cell count,HSV replic up,HSV replic up primary fold,RGS16-Gao HTS
COc1ccc(-n2nc([N+](=O)[O-])c(=NCc3ccco3)n2O)cc1,-4,nt,-40,106,i,0.81,93
Cc1sc2ncn(C(C)C(=O)OC3CCCCC3)c(=O)c2c1C (stereo not given),-1,-1.2,4,168,i,0.96,100
CS(=O)(=O)N(CC(=O)N1CCC(C(N)=O)CC1)c1ccc(Oc2ccccc2)cc1,-9,-1.5,nt,nt,i,1,103
Cc1cc(C)n2nc(C(=O)Nc3c(C)nn(Cc4ccc(F)cc4)c3C)cc2n1,8,nt,nt,nt,i,0.96,104
COC(=O)c1ccc(-c2ccc(/C=N/NC(=O)CC3(C)OCCCO3)o2)cc1,-2,nt,-8,126,i,0.91,95
Cc1c(Cl)cccc1NC(=S)NCc1ccccc1Cl,-3,0.2,17,106,i,1,112
CCCCOc1ccc(C(=O)Oc2ccc(C)nc2)cc1,3,-1.7,13,81,i,1.1,99
CCCc1ccc(Oc2cc(N3CCOCC3)nc(-c3ccccc3)n2)cc1,4,-1.8,23,126,i,1.3,nt
O=C1NC(c2ccccc2Br)=N/C1=C\c1ccco1,nt,nt,nt,nt,i,1.1,99
CC(Cc1ccccc1)N/C=C1/CC(=O)NC1=O (stereo not given),-26,0.4,30,96,i,1.1,105
Cc1ccccc1-n1c(Cc2cccs2)n[nH]c1=S,-6,-1.9,21,104,i,0.75,97
CC(C)(C)NC(=S)NNC(=O)c1cccc(Br)c1,1,nt,nt,nt,i,0.94,93
COC(=O)C1=C(NC(=O)COc2ccc(Cl)cc2Cl)CCS1,3,-0.7,nt,nt,i,1.1,96
N/C(=N\OC(=O)c1ccc(Cl)cc1[N+](=O)[O-])c1cccnc1,nt,nt,nt,nt,i,1.1,104
O=C(OCc1nc2ccccc2[nH]1)C12CC3CC(CC(C3)C1)C2,-4,-0.9,nt,nt,i,0.96,105
CCCC1(CCC)NC(=O)NC1=O,-4,-0.7,nt,nt,i,1,62
Cc1ccc(-c2nnn(CC(=O)N(CC3CCCO3)C(C(=O)NC3CCCC3)c3ccc(F)cc3)n2)o1 (stereo not given),-10,-2.0,-500,39,i,1,103
Cc1cc(NC(=O)C2CCCCC2)ccc1NC(=O)c1ccccc1Cl,-3,-2.2,0,76,i,0.9,46
CCCn1c(=S)[nH]c2cc(OC)c(OC)cc2c1=O,-1,-0.2,61,131,i,0.79,106
CCOCCCNS(=O)(=O)c1ccc(Br)cc1,-8,-2.7,14,149,i,0.86,102

# Shown with two lines to a compound: 2 of the compounds above
# Second line of a record: PKD1 inh | GALR2 ag | INS promoter inh | INS promoter inh cell count | HSV replic up | HSV replic up primary fold | RGS16-Gao HTS
CCCn1c(=S)[nH]c2cc(OC)c(OC)cc2c1=O
    -1 | -0.2 | 61 | 131 | i | 0.79 | 106
Cc1cc(C)n2nc(C(=O)Nc3c(C)nn(Cc4ccc(F)cc4)c3C)cc2n1
    8 | nt | nt | nt | i | 0.96 | 104

# Other results.
SMILES,PKD1 inh,GALR2 ag,INS promoter inh,INS promoter inh cell count,HSV replic up,HSV replic up primary fold,RGS16-Gao HTS
CCc1cccc2c(=O)c(C(=O)N3CCOCC3)c[nH]c12,-2,-1.4,nt,nt,i,0.87,110
O=[N+]([O-])c1ccc2c(c1)nc1n2CCN(C2CCCCC2)C1,5,nt,nt,nt,i,1,99
CCOC(=O)Cc1nnc(NC(=O)C2CCCCC2)s1,2,nt,nt,nt,i,1.1,107
O=c1c(N2CCOCC2)coc2ccccc12,2,nt,nt,nt,i,0.98,98
COc1ccccc1NC(=O)CN(Cc1ccco1)C(=O)c1cc2ccccc2o1,4,nt,-36,159,i,0.91,109
Cc1ccc(CSc2ncn(-c3ccccc3)n2)cc1,3,-0.6,-28,112,i,0.96,-12
CCOC(=O)C(C)Sc1nnc(Cc2cc(=O)[nH]c(=O)[nH]2)n1-c1ccc(OCC)cc1 (stereo not given),-15,-1.0,nt,nt,i,0.99,101
O=C(CSc1ccccc1)Nc1ccc(NC(=O)c2ccco2)cc1,-11,-3.2,53,110,i,0.62,104
COCCCNC(=S)NNC(=O)C(O)(c1ccccc1)c1ccccc1,-6,nt,nt,nt,i,1.1,100
CCCCN=c1scc(-c2ccc3c(c2)NC(=O)CO3)n1N=C1CCCC1,-6,0.3,-14,100,i,0.83,93
COc1ccc(-c2nnc(SCC(=O)NNC(=O)Cc3ccccc3)n2C)cc1OC,7,-0.6,-17,87,i,0.9,105
O=C(CSC1=NC(=O)C(Cc2ccccc2)C(=O)N1)NC1CCCCC1 (stereo not given),3,-0.3,33,124,i,0.79,105
N#C[C@@H]1[C@@H]2C(=O)N(c3ccc4c(c3)OCCO4)C(=O)[C@@H]2C2c3ccccc3C=CN21 (stereo not given in full),-10,-2.4,24,120,i,1.3,103
Cc1c(C(=O)N2CCC(C)CC2)sc2ncnc(N3CCN(c4ccccc4)CC3)c12,-7,-0.7,nt,nt,nt,nt,109
CN(C(=O)OCc1ccccc1)C(CC(N)=O)C(=O)O (stereo not given),-8,-1.1,nt,nt,i,1.1,87
CCOC(=O)/C(C#N)=N/Nc1ccccc1C(=O)O,nt,nt,nt,nt,i,1,100
C[C@@H](C(=O)NCCc1c[nH]c2ccccc12)[C@H]1C[C@]1(C)[C@H](NC(=O)OCc1ccccc1)c1ccccc1,-11,-2.6,-30,77,i,0.8,99
COc1ccc(/C=N/NC(=O)c2nc(-c3ccccc3)cc(-c3ccccc3)n2)cc1O,5,0.1,34,87,i,0.7,13
Cc1ccc(C(=O)CCCn2nnc(-c3cccnc3)n2)cc1C,-3,0.9,3,61,i,0.92,103
O=C(CCNC(=O)OCc1ccccc1)NC1CCCCCC1,-2,-1.9,-127,126,i,0.98,108
Cc1ccc(/C(O)=C2/C(=O)C(=O)N(CCN3CCOCC3)C2c2cccnc2)cc1 (stereo not given),-7,-0.6,nt,nt,nt,nt,106
Cn1c(=O)c2c(ncn2CCc2ccccc2)n(C)c1=O,-5,nt,nt,nt,i,1.1,106
CCCCCCCC(=O)NC(Nc1ccccc1OC)C(Cl)(Cl)Cl (stereo not given),-4,-1.5,nt,nt,i,0.99,101
COc1ccc(N2CCc3c(C)nc(SC)nc32)cc1,4,nt,nt,nt,i,0.94,109
CCOC(=O)c1ccc(NS(=O)C23CC4CC(CC(C4)C2)C3)cc1 (stereo not given),-3,-0.3,46,49,i,0.86,98
CCCCCCCCNC(=O)CCNC(=O)c1ccc(C(C)(C)C)cc1,-7,-1.9,0,99,i,0.82,93
COc1ccc(N2C(=O)C(CC(=O)Nc3ccccc3)N(CCc3ccc(OC)c(OC)c3)C2=O)cc1 (stereo not given),-4,nt,nt,nt,i,0.84,102
Cn1cccc1CC(=O)N/N=C/c1cc([N+](=O)[O-])ccc1Cl,1,nt,nt,nt,i,0.89,108
CCOC(=O)CCCNC(=O)CCNC(=O)c1ccc(OCC(C)C)cc1,nt,nt,nt,nt,i,0.86,98
CCN(CC)S(=O)(=O)c1ccc(OC)c(NC(=O)CSc2ccccc2)c1,6,-0.7,-220,97,i,0.99,95
CCOC(=O)c1sc(NC(=O)CSc2nnc(-c3ccco3)o2)c(C(=O)OCC)c1C,-4,-1.2,-17,160,i,0.99,42
O=C(O)c1ccc(CNCc2ccccc2F)cc1,5,nt,-11,90,i,1,99
CCOCCCNC(=O)c1ccccc1Br,-9,0.5,7,81,i,0.95,151
Cc1onc(-c2ccccc2)c1NC(=O)Nc1c(-c2ccccc2)noc1C,-4,nt,-86,122,i,0.87,103
O=C(COc1ccc(Cl)cc1Cl)NC(=O)N1CCOCC1,-10,-0.2,nt,nt,i,0.93,103
COc1ccc(C(=O)Nc2ccc(CN3CCOCC3)cc2)cc1,-11,-2.7,36,117,i,0.91,104
O=C(NCc1ccc2c(c1)OCO2)C1CCCN1C(=O)Nc1ccccc1 (stereo not given),-7,-3.6,-49,202,i,0.94,101
CC(=O)Oc1ccc2oc3c(c2c1)C(=O)CCC3,2,-2.6,-6,126,i,0.85,96
O=Cc1ccc(Oc2ccc(F)cc2)nc1,-8,nt,nt,nt,i,0.79,97
Cc1c(N/C(=N/S(=O)(=O)c2ccccc2)c2ccc(Cl)cc2)c(=O)n(-c2ccccc2)n1C,-2,-1.0,nt,nt,i,0.96,103
c1ccc(-c2nnc3n2-c2ccccc2SC3)cc1,nt,nt,nt,nt,i,1.2,99
CS(=O)(=O)N1CCN(c2ccc(NC(=O)c3ccccc3)cc2)CC1,3,nt,nt,nt,i,0.71,101
O=C(CN1C(=O)CSC1=O)N1CCCCC1,5,-1.6,-324,66,i,0.96,102
Cc1ccc(CNC(=O)Cn2c([N+](=O)[O-])cnc2C)cc1,4,-2.5,13,69,i,0.88,103
Cc1cc(NC(=O)C(=O)c2cn(C)c3ccccc23)no1,0,nt,7,117,i,0.9,106
CC(=O)Nc1ccccc1N(CC(O)Cn1c2ccccc2c2ccccc21)S(=O)(=O)c1ccc(C)cc1 (stereo not given),2,-2.0,-6,78,i,0.95,104
O=C(Nc1cccc2ncccc12)C12CC3CC(CC(C3)C1)C2,4,-0.3,50,125,i,0.84,102
CCNC(=O)C12CCC(C)(c3nc4cc(C)c(C)cc4nc31)C2(C)C (stereo not given),-9,nt,nt,nt,i,0.85,102
O=S(=O)(c1ccc2c(c1)OCCO2)N1CCC(c2nc3ccccc3[nH]2)CC1,1,-0.7,0,93,i,1.1,90
CCOc1nc(-c2ccccc2)ccc1-c1noc(-c2cccs2)n1,-2,-3.8,-31,85,i,0.86,86
COc1cc(-c2nnc(SCC(=O)/C(C#N)=C(\C)N)o2)cc(OC)c1OC,-5,-3.3,10,118,i,0.9,113
O=C(CSC1CC(=O)N(c2ccc(C(=O)O)cc2)C1=O)Nc1ccc2ccccc2c1 (stereo not given),-5,nt,nt,nt,i,0.84,98
CC(=O)c1cc(NC(=O)c2cccc(C(F)(F)F)c2)c(=O)oc1/C=C/N(C)C,-5,-1.4,4,123,i,1.5,101
Cc1ccccc1OCC(=O)NNC(=S)NC(=O)c1ccco1,4,-3.8,4,166,i,1.1,103
COc1ccc(C2CC(=O)Nc3sc(=N)c4c(N)c(C#N)c(N)nc4c32)cc1OC (stereo not given),-1,-2.8,-38,121,i,0.95,100
COc1ccc(Oc2cc(Cl)nc(N)n2)cc1,11,nt,-17,110,i,1,100
COc1ccc(C2CC(C(F)(F)F)n3nc(C(=O)N(C)Cc4cn(C)nc4C)c(Cl)c3N2)cc1 (stereo not given),3,-3.0,-35,68,i,0.95,99
O=C(OCc1nnc(-c2ccccc2)o1)c1ccccc1,2,nt,nt,nt,i,0.9,103
Cc1ccc(S(=O)(=O)N2CCC(=O)N(CCOCc3ccc(C(F)(F)F)cc3)CC2)cc1,-9,0.3,-64,115,i,0.99,104
CCN1c2ccc(S(=O)(=O)N3CCOCC3)cc2N(Cc2ccc(OC)cc2)C1C (stereo not given),-6,nt,-436,137,i,0.92,50
# Next compounds
SMILES,PKD1 inh,GALR2 ag,INS promoter inh,INS promoter inh cell count,HSV replic up,HSV replic up primary fold,RGS16-Gao HTS
COc1cccc(CNC(=O)C2CCN(Cc3cnn(-c4ccccc4)c3-n3cccc3)CC2)c1,-4,0.5,-48,95,i,0.94,107
Cc1ccc(NC(=O)COC(=O)/C=C/c2ccc(Br)o2)cc1S(=O)(=O)N(C)C,-5,nt,28,65,i,1.1,92
COc1ccc(-c2nnc(SCc3ccc(C(=O)O)cc3)n2N)cc1,nt,nt,nt,nt,i,1.3,102
COC(=O)C1=C(C)NC(=O)NC1c1ccc([N+](=O)[O-])o1 (stereo not given),9,-0.4,25,130,nt,nt,47
CCOc1ccc(-n2c(C)nnc2SCC(=O)N(CC)CC)cc1,-8,-0.7,0,67,i,0.87,104
CCOC(=O)/C(=C/C=C1\Sc2ccccc2N1CC)C(C)=O,-15,0.6,-47,84,?,nt,106
CCCCN(CCCC)S(=O)(=O)c1ccc(C(=O)Nc2nnc(COC)o2)cc1,-13,0.0,-55,104,i,0.99,88

# Individual results from above:
# Result for CCOC(=O)/C(=C/C=C1\Sc2ccccc2N1CC)C(C)=O under RGS16-Gao HTS: 106
# Result for CCCCN(CCCC)S(=O)(=O)c1ccc(C(=O)Nc2nnc(COC)o2)cc1 under GALR2 ag: 0.0
# Result for CCOc1ccc(-n2c(C)nnc2SCC(=O)N(CC)CC)cc1 under INS promoter inh: 0
# Result for COc1cccc(CNC(=O)C2CCN(Cc3cnn(-c4ccccc4)c3-n3cccc3)CC2)c1 under GALR2 ag: 0.5
# Result for COC(=O)C1=C(C)NC(=O)NC1c1ccc([N+](=O)[O-])o1 (stereo not given) under INS promoter inh: 25
# Result for COc1ccc(-c2nnc(SCc3ccc(C(=O)O)cc3)n2N)cc1 under HSV replic up primary fold: 1.3
# Result for Cc1ccc(NC(=O)COC(=O)/C=C/c2ccc(Br)o2)cc1S(=O)(=O)N(C)C under HSV replic up primary fold: 1.1
